NOMO-1 viab – NOMO-1 AML cell viability reduction, primary screen, STK33 inhibitor project, CellTiter-Glo luminescence; 7.5% of 37,000 active; inhibition, % (no concentration beside the values); NOMO-1 AML viability, 72 h;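 active = most replicates above 80%; inconclusive = exactly half above 80%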;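 also: wells of about 30 µL received 25 nL stock; 0% = median of vehicle wells and 100% = reference inhibitor level; the first replicate is given; inactives centre near 10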
* hit, by the source's call.

Results for Cc1ccc(S(=O)(=O)Nc2ccc3c(c2)C(=O)N([C@H](C)CO)C[C@@H](C)[C@@H](CN(C)S(=O)(=O)c2cccs2)O3)cc1 ?
NOMO-1 viab: 27

What do the screens show for `C[C@@H]1CCCCO[C@@H](CN(C)Cc2ccccc2)[C@@H](C)CN([C@H](C)CO)C(=O)c2cc(NS(=O)(=O)c3ccc(Cl)cc3)ccc2O1`?
NOMO-1 viab: 40

How did O=C(NS(=O)(=O)c1ccc(NC(=O)C2CCCO2)cc1)c1ccccc1 (stereo unspecified) do in these assays?
NOMO-1 viab: -6

What do the screens show for `C[C@@H]1CN([C@H](C)CO)C(=O)c2cccc(NC(=O)NC3CCCCC3)c2O[C@H]1CN(C)Cc1ccncc1`?
NOMO-1 viab: 6

How did C[C@@H]1CN([C@H](C)CO)C(=O)c2cccc(NC(=O)C3CC3)c2O[C@H]1CN(C)Cc1ccc(Cl)c(Cl)c1 do in these assays?
NOMO-1 viab: inconclusive

Results for O=C(COc1ccc(Cl)cc1Br)Nc1ccccc1C(=O)NC1CCCCC1 ?
NOMO-1 viab: 63

How did Cc1ccc(S(=O)(=O)Nc2ccc3c(c2)CC(=O)N([C@H](C)CO)C[C@@H](C)[C@@H](CN(C)C(=O)NC(C)C)O3)cc1 do in these assays?
NOMO-1 viab: -13

Results for COc1ccc(NC(=O)Nc2ccc3c(c2)C(=O)N([C@@H](C)CO)C[C@@H](C)[C@H](CN(C)C(=O)NC(C)C)O3)cc1 ?
NOMO-1 viab: 19

What do the screens show for `Cc1ccc(CCN=c2c([N+](=O)[O-])nn(-c3ccc4c(c3)OCCO4)n2O)cc1`?
NOMO-1 viab: 46

Results for CC(C)c1ccccc1Oc1coc2cc(OCC(=O)Nc3ccccc3F)ccc2c1=O ?
NOMO-1 viab: 28

What do the screens show for `C[C@@H]1CN([C@H](C)CO)C(=O)Cc2cc(NC(=O)NC3CCCCC3)ccc2O[C@H]1CN(C)Cc1ccc(C(=O)O)cc1`?
NOMO-1 viab: -10

Results for CCN(CC(=O)Nc1ccc(F)c(Cl)c1)S(=O)(=O)c1ccc2ccccc2c1 ?
NOMO-1 viab: 5

How did COC(=O)c1cccc(NC(=O)CN(c2ccc(I)cc2)S(C)(=O)=O)c1C do in these assays?
NOMO-1 viab: 100*

What do the screens show for `C[C@H]1CN([C@@H](C)CO)C(=O)Cc2cc(NC(=O)Nc3ccc(F)cc3)ccc2O[C@@H]1CN(C)S(=O)(=O)c1ccc(Cl)cc1`?
NOMO-1 viab: 0

What do the screens show for `C[C@@H]1CN([C@@H](C)CO)C(=O)c2cccc(NS(=O)(=O)c3cccs3)c2O[C@H]1CN(C)Cc1ccccc1`?
NOMO-1 viab: -11

Results for O=C(COc1ccccc1Cl)Nc1ccccc1NC(=O)c1ccco1 ?
NOMO-1 viab: -5

Results for COc1ccc(C)cc1NC(=O)CSc1nnc(-c2ccc(Cl)c(Cl)c2)n1C ?
NOMO-1 viab: 5

How did Cc1nc(C)n(CC(O)COc2ccc3ccccc3c2)n1 (stereo unspecified) do in these assays?
NOMO-1 viab: 26

Results for C[C@@H]1CN([C@@H](C)CO)C(=O)c2cc(N(C)C)ccc2O[C@@H]1CN(C)Cc1ccc(C(=O)Nc2ccccc2N)cc1 ?
NOMO-1 viab: 110*

Results for CCCCC1(COC(=O)c2ccc(OC)cc2)C(=O)N(c2ccccc2)N(c2ccccc2)C1=O ?
NOMO-1 viab: 66

How did COc1cccc(C(=O)Nc2cccc(OC(C)C(=O)c3cccc(Cl)c3)c2)c1 (stereo unspecified) do in these assays?
NOMO-1 viab: 19

What do the screens show for `CC(C)NC(=O)Nc1ccc2c(c1)C(=O)N([C@H](C)CO)C[C@@H](C)[C@H](CN(C)S(=O)(=O)c1ccc(Cl)cc1)O2`?
NOMO-1 viab: 6

What do the screens show for `O=C(CSc1n[nH]c(-c2ccncc2)n1)Nc1cccc(Cl)c1Cl`?
NOMO-1 viab: 14

Results for Cc1cccc(C)c1OCC(=O)Nc1cccc(NC(=O)c2ccco2)c1 ?
NOMO-1 viab: 24

What do the screens show for `C[C@H]1CN([C@@H](C)CO)C(=O)Cc2cc(NC(=O)Nc3ccc4c(c3)OCO4)ccc2O[C@H]1CN(C)S(=O)(=O)c1cccs1`?
NOMO-1 viab: 42

Results for C[C@H]1CN([C@@H](C)CO)C(=O)c2cccc(NC(=O)c3cnccn3)c2O[C@H]1CN(C)C(=O)NC1CCCCC1 ?
NOMO-1 viab: 2

How did CC(=O)c1cccc(N(CC(=O)N(C)C)S(C)(=O)=O)c1 do in these assays?
NOMO-1 viab: 20

What do the screens show for `COC(=O)c1ccccc1NC(=O)CNC(=O)c1ccc(C(C)(C)C)cc1`?
NOMO-1 viab: -1

How did Cc1noc(C)c1S(=O)(=O)Nc1ccc2c(c1)C(=O)N([C@H](C)CO)C[C@H](C)[C@@H](CN(C)S(=O)(=O)c1cn(C)cn1)OCCCC[C@@H](C)O2 do in these assays?
NOMO-1 viab: 8

How did C[C@@H]1CCCCO[C@@H](CN(C)C(=O)C2CCCCC2)[C@@H](C)CN([C@H](C)CO)C(=O)c2cc(NC(=O)CCCCCC(=O)Nc3ccccc3N)ccc2O1 do in these assays?
NOMO-1 viab: 26

What do the screens show for `COc1ccc(NC(=O)Nc2cccc3c2O[C@@H](CN(C)S(=O)(=O)c2ccc(F)cc2)[C@H](C)CN([C@H](C)CO)C3=O)cc1`?
NOMO-1 viab: 5

Results for COc1ccc(S(=O)(=O)N(C)C[C@@H]2Oc3c(cccc3N(C)C)C(=O)N([C@H](C)CO)C[C@@H]2C)cc1 ?
NOMO-1 viab: -3

What do the screens show for `COC(=O)c1sc2nc(-c3ccccc3)nc(Nc3nc(C)cc(C)n3)c2c1C`?
NOMO-1 viab: -2

Results for O=c1c(Cc2ccccc2)c(O)c2cccc3c4ccccc4n1c23 ?
NOMO-1 viab: 41

Results for C[C@H]1CN([C@@H](C)CO)C(=O)Cc2cc(NC(=O)Cc3cn(C)c4ccccc34)ccc2O[C@H]1CN(C)CC1CCCCC1 ?
NOMO-1 viab: 24

How did O=C(Cc1cccc2ccccc12)Nc1ccc(O)cc1C(=O)O do in these assays?
NOMO-1 viab: 18

Results for C[C@@H]1CCCCO[C@@H](CN(C)C(=O)c2ccccc2)[C@@H](C)CN([C@H](C)CO)C(=O)c2cc(NS(=O)(=O)c3cn(C)cn3)ccc2O1 ?
NOMO-1 viab: -8

What do the screens show for `CO/N=C(\C(=O)N[C@@H]1C(=O)N2C(C(=O)O)=C(COC(N)=O)CS[C@H]12)c1ccco1`?
NOMO-1 viab: -8

How did C[C@@H]1CN([C@@H](C)CO)C(=O)c2cccc(NS(=O)(=O)c3ccc(Cl)cc3)c2O[C@@H]1CN(C)C do in these assays?
NOMO-1 viab: 11

What do the screens show for `CC(C)Oc1ccccc1NC(=O)CSc1nnc(-c2ccccc2Cl)o1`?
NOMO-1 viab: 29

What do the screens show for `O=C(O)c1ccc(Cl)c(S(=O)(=O)N2CCCC2C(=O)O)c1` (stereo unspecified)?
NOMO-1 viab: 8

Results for COc1ccc(NC(=O)Nc2ccc3c(c2)CC(=O)N([C@H](C)CO)C[C@@H](C)[C@@H](CN(C)C(=O)Nc2ccc(C(F)(F)F)cc2)O3)cc1 ?
NOMO-1 viab: 20

How did COc1ccc(-n2c(SCC(=O)Nc3ccc(C)c(Cl)c3)nnc2-c2ccncc2)cc1 do in these assays?
NOMO-1 viab: 28

What do the screens show for `COc1cc(O)c(C(=O)c2c(C)cc(O)cc2OC)c(O)c1`?
NOMO-1 viab: 121*

How did COc1ccc(CN(C)C[C@H]2Oc3c(NC(=O)Nc4c(C)noc4C)cccc3C(=O)N([C@H](C)CO)C[C@H]2C)cc1 do in these assays?
NOMO-1 viab: -12

The closing 5 entries of the section before lead into the next:
What do the screens show for `O=C(O)c1ccc(Cl)c(S(=O)(=O)N2CCCC2C(=O)O)c1` (stereo unspecified)?
NOMO-1 viab: 8

Results for COc1ccc(NC(=O)Nc2ccc3c(c2)CC(=O)N([C@H](C)CO)C[C@@H](C)[C@@H](CN(C)C(=O)Nc2ccc(C(F)(F)F)cc2)O3)cc1 ?
NOMO-1 viab: 20

How did COc1ccc(-n2c(SCC(=O)Nc3ccc(C)c(Cl)c3)nnc2-c2ccncc2)cc1 do in these assays?
NOMO-1 viab: 28

What do the screens show for `COc1cc(O)c(C(=O)c2c(C)cc(O)cc2OC)c(O)c1`?
NOMO-1 viab: 121*

How did COc1ccc(CN(C)C[C@H]2Oc3c(NC(=O)Nc4c(C)noc4C)cccc3C(=O)N([C@H](C)CO)C[C@H]2C)cc1 do in these assays?
NOMO-1 viab: -12

What do the screens show for `COc1ccc(C(=O)CSc2nnc(-c3ccccc3)n2-c2ccc(Cl)cc2)cc1`?
NOMO-1 viab: 10

Results for C[C@H](CO)N1C[C@H](C)[C@H](CN(C)C(=O)NC2CCCCC2)Oc2c(NC(=O)c3nc4ccccc4s3)cccc2C1=O ?
NOMO-1 viab: 76

Results for Cc1ccc(C(=O)/C=C/Nc2ccc(C(F)(F)F)cc2)cc1 ?
NOMO-1 viab: 7

What do the screens show for `CC(CCC(=O)Nc1ccccc1)C(=O)O` (stereo unspecified)?
NOMO-1 viab: -13

What do the screens show for `C[C@@H]1CN([C@H](C)CO)C(=O)Cc2cc(NC(=O)CCCCCC(=O)Nc3ccccc3N)ccc2O[C@@H]1CN(C)CC1CCCCC1`?
NOMO-1 viab: 133*

Results for Cc1noc(C)c1NC(=O)N(C)C[C@H]1Oc2ccc(NS(C)(=O)=O)cc2CC(=O)N([C@@H](C)CO)C[C@@H]1C ?
NOMO-1 viab: 3

What do the screens show for `Cc1ccc(S(=O)(=O)N(C)C[C@@H]2Oc3ccc(NC(=O)Nc4ccc5c(c4)OCO5)cc3CC(=O)N([C@@H](C)CO)C[C@@H]2C)cc1`?
NOMO-1 viab: 108*

What do the screens show for `C[C@H](CO)N1C[C@H](C)[C@H](CN(C)CC2CCCCC2)Oc2ccc(NC(=O)Nc3cccc4ccccc34)cc2C1=O`?
NOMO-1 viab: inconclusive

Results for C[C@@H]1CN([C@@H](C)CO)C(=O)c2cc(NC(=O)CCCCCC(=O)Nc3ccccc3N)ccc2O[C@@H]1CN(C)Cc1ccc2c(c1)OCO2 ?
NOMO-1 viab: 95*

What do the screens show for `C[C@H]1CN([C@@H](C)CO)C(=O)c2cccc(N(C)C)c2O[C@H]1CN(C)C(=O)Nc1ccccc1`?
NOMO-1 viab: 1

What do the screens show for `CCn1c(SCC(=O)Nc2ccc(Cl)cc2C)nnc1-c1ccncc1`?
NOMO-1 viab: 5

How did CCc1ccc(NC(=O)CSc2nnc(-c3ccc(Br)cc3)n2C)cc1 do in these assays?
NOMO-1 viab: -12

Results for COc1ccc(S(=O)(=O)Nc2ccc3c(c2)C(=O)N([C@@H](C)CO)C[C@@H](C)[C@@H](CN(C)S(=O)(=O)c2ccc(OC)cc2)O3)cc1 ?
NOMO-1 viab: 14

Results for CC(C)NC(=O)Nc1ccc2c(c1)C(=O)N([C@H](C)CO)C[C@H](C)[C@@H](CN(C)C(=O)Cc1ccccc1)OCCCC[C@@H](C)O2 ?
NOMO-1 viab: -2

Results for COC(=O)c1sccc1NC(=O)c1cc(-c2cccnc2)nc2ccc(Cl)cc12 ?
NOMO-1 viab: -22

Results for C[C@H]1CN([C@@H](C)CO)C(=O)c2cc(NS(=O)(=O)c3ccccc3)ccc2O[C@H]1CN(C)C ?
NOMO-1 viab: 0

How did C[C@@H]1CN([C@H](C)CO)C(=O)Cc2cc(NC(=O)Nc3ccccc3)ccc2O[C@H]1CN(C)CC1CC1 do in these assays?
NOMO-1 viab: -14

How did O=C(COc1ccccc1C(=O)Nc1cccc(Cl)c1Cl)Nc1ccc(N2CCOCC2)c(Cl)c1 do in these assays?
NOMO-1 viab: 30

Results for C[C@H](CO)N1C[C@H](C)[C@@H](CN(C)Cc2ccccc2)Oc2ccc(NC(=O)CCC(F)(F)F)cc2C1=O ?
NOMO-1 viab: 15

Results for COC(=O)c1c(NC(=O)COc2ccc(C(C)C)c(C)c2)sc2c1CCC2 ?
NOMO-1 viab: -13

Results for C[C@@H]1CN([C@@H](C)CO)C(=O)Cc2cc(NC(=O)Nc3ccc(F)cc3)ccc2O[C@@H]1CN(C)Cc1ccc(C(F)(F)F)cc1 ?
NOMO-1 viab: 113*

Results for CC(C)NC(=O)Nc1ccc2c(c1)C(=O)N([C@H](C)CO)C[C@@H](C)[C@@H](CN(C)S(=O)(=O)c1cccs1)O2 ?
NOMO-1 viab: 16

How did C[C@H]1CN([C@@H](C)CO)C(=O)c2cc(NS(=O)(=O)c3ccc(F)cc3)ccc2O[C@H]1CN(C)Cc1ccc(-c2ccccc2)cc1 do in these assays?
NOMO-1 viab: 45

How did COc1ccc(NC(=O)N(C)C[C@H]2Oc3c(NS(=O)(=O)c4ccccc4)cccc3C(=O)N([C@@H](C)CO)C[C@H]2C)cc1 do in these assays?
NOMO-1 viab: 33

How did C[C@@H]1CN([C@@H](C)CO)C(=O)c2cc(NC(=O)Nc3cccc4ccccc34)ccc2O[C@H]1CN(C)Cc1ccccc1 do in these assays?
NOMO-1 viab: 3

Results for O=[N+]([O-])c1cccc2c(Br)[nH]nc12 ?
NOMO-1 viab: 12

How did C[C@@H]1CN([C@@H](C)CO)C(=O)c2cccc(NC(=O)c3nc4ccccc4s3)c2O[C@H]1CN(C)Cc1ccc(-c2ccccc2)cc1 do in these assays?
NOMO-1 viab: inconclusive

Three entries out of the list, sorted by count of non-hydrogen atoms, lowest first:
How did C[C@@H]1CN([C@H](C)CO)C(=O)c2cccc(NC(=O)C3CC3)c2O[C@H]1CN(C)Cc1ccc(Cl)c(Cl)c1 do in these assays?
NOMO-1 viab: inconclusive

Results for C[C@H](CO)N1C[C@H](C)[C@@H](CN(C)Cc2ccccc2)Oc2ccc(NC(=O)CCC(F)(F)F)cc2C1=O ?
NOMO-1 viab: 15

How did Cc1ccc(S(=O)(=O)Nc2ccc3c(c2)CC(=O)N([C@H](C)CO)C[C@@H](C)[C@@H](CN(C)C(=O)NC(C)C)O3)cc1 do in these assays?
NOMO-1 viab: -13

Bioassay records deposited in PubChem by Broad Institute.

An excerpt; count on the stated rates, not on these rows.
